From PubChem BioAssay
KCNQ2 inh = KCNQ2 channel blockers in CHO-K1 cells – cell-based, FluxOR thallium flux, B-score, primary screen (AID 2156); O88943; 20 min; hits give low values; only compounds with negative scores are shown here; some inactives read as strong as hits; B-score at 10 µM; 1.1% of 310,000 active;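 active means fluorescence ratio B-score at most minus 3 library SDs, with starting brightness B-score within 2 library SDs, cut at about -5.5 in these data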
Target sequence (O88943 whole entry, looked up): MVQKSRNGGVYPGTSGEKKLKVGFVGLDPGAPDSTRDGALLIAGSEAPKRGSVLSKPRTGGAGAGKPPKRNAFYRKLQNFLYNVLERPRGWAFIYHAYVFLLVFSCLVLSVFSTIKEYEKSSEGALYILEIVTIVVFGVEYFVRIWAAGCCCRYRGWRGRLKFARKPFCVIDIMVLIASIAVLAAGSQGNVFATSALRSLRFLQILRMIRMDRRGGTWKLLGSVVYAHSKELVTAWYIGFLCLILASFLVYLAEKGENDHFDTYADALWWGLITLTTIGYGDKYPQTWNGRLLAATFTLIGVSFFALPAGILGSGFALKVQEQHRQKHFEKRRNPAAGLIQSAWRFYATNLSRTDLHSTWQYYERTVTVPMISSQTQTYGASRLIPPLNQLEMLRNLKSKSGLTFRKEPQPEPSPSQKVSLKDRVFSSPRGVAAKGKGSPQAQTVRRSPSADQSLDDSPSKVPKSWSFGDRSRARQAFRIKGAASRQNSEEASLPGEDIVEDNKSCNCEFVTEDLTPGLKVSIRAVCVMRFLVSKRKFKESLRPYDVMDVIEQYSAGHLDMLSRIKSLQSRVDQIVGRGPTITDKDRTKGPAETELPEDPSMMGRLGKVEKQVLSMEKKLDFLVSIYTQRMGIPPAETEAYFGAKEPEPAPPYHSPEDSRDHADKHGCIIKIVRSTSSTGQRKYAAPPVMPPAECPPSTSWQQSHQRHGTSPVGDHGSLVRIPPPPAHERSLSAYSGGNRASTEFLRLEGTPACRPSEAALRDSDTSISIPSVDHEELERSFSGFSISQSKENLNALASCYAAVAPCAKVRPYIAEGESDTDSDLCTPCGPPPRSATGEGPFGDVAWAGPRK
KCNQ2 inh baseline = recorded beside KCNQ2 inh, whose call it bears; B-score; measured here: initial fluorescence intensity artifact check;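 brightness before thallium and not channel activity; 0 = typical well and far values either way flag optical interference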
* hit, by the source's call; i = inactive. The list is partial; rates above refer to the full screens.

SMILES	KCNQ2 inh	KCNQ2 inh baseline
O=C(NC1CCCCC1)C1CC(=O)N(CCc2ccc(F)cc2)C1 (configuration not stated)	i	0.65
COc1ccc(NC(=O)CSc2nc3c(c(-c4cccs4)c2C#N)CN(C)CC3)cc1OC	i	0.04
CS(=O)(=O)Oc1ccccc1/C=C1/N=C(c2ccc(F)cc2)OC1=O	i	-0.03
O=C(NCc1ccccc1)C1=C[C@H](c2ccc3c(c2)OCO3)C[C@H](OCc2ccc(CO)cc2)O1	i	-0.5
CC(C)(C)c1nnc2cccc(Cl)n12	i	2.4
COc1ccccc1/C=C/C=N/NC(=O)c1cccs1	i	-1.2
COc1ccc(OC)c(C(c2nnnn2Cc2ccccc2)N2CCN(C3CCCCC3)CC2)c1 (configuration not stated)	i	-1.6
CCCCC/C=C\C[C@H](O)/C=C/c1cccc(C[C@H](O)CCCCO)n1	i	1.4
COc1ccccc1C(=O)NCCCNC(=O)c1ccccn1	i	-0.63
O=C(/C=C/c1ccccc1)Oc1coc(CSc2ncccn2)cc1=O	i	1.4
CCn1c(=O)cc(OCC(=O)NCc2ccco2)c2ccccc21	i	-2.5
Cc1cc(C)c(C#N)c(SCC(O)CS(=O)(=O)Cc2ccccc2)n1 (configuration not stated)	i	0.22
CCc1nc(NCC2CCCO2)c2oc3ccccc3c2n1 (configuration not stated)	i	-1
CCOc1ccc(NC(=O)c2sc3nc(C)nc(N4CCOCC4)c3c2C)cc1	i	-1.2
O=C(Nc1ccncc1)Nc1ccc(Cl)cc1Cl	i	-0.58
NC(=O)NN=C1C2CCCC1C(c1ccccc1)NC2c1ccccc1 (configuration not stated)	i	-0.23
Cc1[nH]c2ccccc2c1SCC(=O)N1CCOCC1	i	0.34
O=C(O/N=C\c1ccc(N2CCOCC2)c([N+](=O)[O-])c1)c1ccc(F)cc1	i	-0.01
CCOC(=O)C1=C(Nc2ccc(Br)cc2)CC(C)(O)C(C(=O)OCC)C1c1ccccc1 (configuration not stated)	i	1.4
N#Cc1cc2c(N)c(C(=O)Nc3ccccc3)sc2nc1N	i	0.32
COc1ccc2nc3ccccc3nc2c1NC(=O)c1ccc(Cl)cc1	i	0.05
c1ccc2c(-c3nc4ncccc4o3)cccc2c1	i	0.62
CCn1c(SCc2c(Cl)cccc2Cl)nc2nc3c(cc2c1=O)CCCC3	-6.7*	1.8*
COC(=O)c1nc(C(=O)OC)c(C(=O)OC)nc1C(=O)OC	i	0.88
COC(=O)c1ccc(C(=O)NC2CCCc3c2cnn3-c2ccc(C)c(C)c2)cc1 (configuration not stated)	i	-2.4
COc1ccc(NC2CCCN(Cc3cccc4cnccc34)C2)cc1OC (configuration not stated)	i	-0.04
Cc1ccc(Cn2c(C3CCCN3c3nc(-c4cc(Cl)c(N)c(Cl)c4)cs3)nc3cc(C(=O)NCCCO)ccc32)cc1 (configuration not stated)	i	0.6
Cc1ccc(S(=O)(=O)NCc2ccc(N3CCN(C(=O)OC(C)(C)C)CC3)cc2)cc1	i	0.01
COc1ccc(CCNS(=O)(=O)c2ccc3c(c2)OCCO3)cc1OC	i	1.7
COc1ccc(CCN2C(=S)NC3CC2(C)Oc2ccc([N+](=O)[O-])cc23)cc1OC (configuration not stated)	i	0.78
CCOc1ccccc1NC(=O)CN1CCCCCC1	i	1.1
Cc1ccc(CNC(=O)c2cc3cc(Br)ccc3oc2=N)cc1	i	0.02
CC(=O)c1ccc(N2C(=NC(=O)CCc3ccccc3)SC3CS(=O)(=O)CC32)cc1 (configuration not stated)	i	-1.6
O=S(=O)(Nc1nc2ccccc2nc1-[n+]1ccccc1)c1ccc(Cl)cc1	i	1.3
Cc1csc(SC(C)C(=O)Nc2ccc(S(=O)(=O)N3CCCC3)cc2)n1 (configuration not stated)	i	-0.57
COc1ccc(CC(=O)NC2CC(C)(C)NC(C)(C)C2)cc1	i	-0.54
Cc1ccc2cc(CN(CC3CCCO3)C(=S)NCc3ccco3)c(=O)[nH]c2c1 (configuration not stated)	i	-0.04
CCn1c2c(c3ccc(OC)cc31)CCCC2=O	i	-0.96
O=C(OCc1nc2ccccc2s1)c1cccc(S(=O)(=O)N2CCOCC2)c1	i	1.3
CCCc1ccc(-c2cc(NC(=O)CSc3n[nH]c(N)n3)n(-c3ccccc3)n2)cc1	i	0.38
COc1ccc(S(=O)(=O)N(CC(=O)NCC2CCCO2)Cc2ccccc2)cc1C (configuration not stated)	i	1.1
COC(=O)C(Cc1ccccc1)NC(=O)CNC(=O)c1ccc(Br)cc1 (configuration not stated)	i	-0.48
CSc1nnc(-c2sc3cc(Cl)ccc3c2Cl)n1C	i	0.05
O=C1NCC(c2ccccc2)C1C(=O)N/N=C/c1ccc(Cl)s1 (configuration not stated)	i	0.54
Cc1ccc(/C=C2\SC(=S)N(C3CCS(=O)(=O)C3)C2=O)cc1 (configuration not stated)	i	0.99
CCOC(=O)CC12CN3CN(C1)CC(CC(=O)OCC)(C3)C2=O	i	0.5
CN(Cc1ccccc1)Cc1nc2c(c(=O)n(C)c(=O)n2C)n1CCc1ccccc1	i	1.4
COc1ccc(NC(=O)CC2C(=O)N(C)C(=S)N2Cc2cccs2)cc1 (configuration not stated)	i	-1.3
O=C(O)CC(NC(=O)CCc1ccccc1)c1ccc(Cl)cc1 (configuration not stated)	i	-0.2
CCNc1ccc(C(=O)N/N=C/c2c(C)nn(-c3ccccc3)c2N2CCCC2)cc1[N+](=O)[O-]	i	0.34

Next part, overlapping the part above by three compounds.
SMILES	KCNQ2 inh	KCNQ2 inh baseline
COc1ccc(NC(=O)CC2C(=O)N(C)C(=S)N2Cc2cccs2)cc1 (configuration not stated)	i	-1.3
O=C(O)CC(NC(=O)CCc1ccccc1)c1ccc(Cl)cc1 (configuration not stated)	i	-0.2
CCNc1ccc(C(=O)N/N=C/c2c(C)nn(-c3ccccc3)c2N2CCCC2)cc1[N+](=O)[O-]	i	0.34
CS(=O)(=O)N(CC(=O)NCc1ccncc1)c1cc(Cl)cc(Cl)c1	i	0.81
CCOc1ccc(-n2c(C)cc(/C=N/NC(=O)C(N)=O)c2C)cc1	i	-0.93
COc1ccc2nc(NC(=O)CCc3ccc(OC)c(OC)c3)sc2c1	i	1.5
CCc1cc(=O)oc2cc(C)cc(OCC(=O)NCCc3c[nH]c4ccccc34)c12	i	0.99
CC(=O)Nc1ccc(S(=O)(=O)N(CC(=O)O)Cc2ccccc2)cc1	i	-0.94
CCOC(=O)N1CCN(CC(=O)Nc2nnc(C(F)(F)F)s2)CC1	i	2.2
Cc1cc(NC(=O)CSc2nnc(C)n2C)no1	i	1.8
CCCC(=O)Nc1nc2nc(-c3ccccc3)cc(-c3ccccc3)n2n1	i	0.01
O=C(N/N=C/C=C/c1ccc(Br)cc1)C(O)c1ccccc1 (configuration not stated)	i	-0.34
CCOC(=O)COc1ccc2c(c1)C(=O)CC(C)(C)O2	i	3.1
COc1ccc(CNC(=O)C(C)n2nc(C)c3c(C)n(-c4ccc(C)cc4)nc3c2=O)cc1 (configuration not stated)	i	-0.14
C[C@@H]1C=CC(=O)O[C@@H]1c1ccc(Cl)cc1	i	-0.36
CC[n+]1ccccc1/C=C1\Sc2ccc(C)cc2N1C	i	4.8
CCOC(=O)Nc1ccc2c(c1)N(CCCN(C)C)c1ccccc1CC2	i	0.14
CCOCCCNC(=O)CCNS(=O)(=O)c1ccc(C)cc1	i	0.54
COc1cccc(N2C(=O)[C@H]3C(C(=O)c4cnccn4)=NN[C@H]3C2=O)c1	i	-0.35
CC1CCN(S(=O)(=O)c2cccc(C(=O)NC3CCCCC3)c2)CC1	i	-1.5
CCOC(=O)C1=C(C)NC(=O)NC1c1ccc(N(C)C)cc1 (configuration not stated)	i	-0.11
CCc1cccc(NS(=O)(=O)c2c(C)[nH]c(=O)[nH]c2=O)c1	i	-0.23
CCOc1cc(C(=O)NC(C)COC)cc(OCC)c1OCC (configuration not stated)	i	3.4
Cc1nn(CC(=O)NC(C)c2ccccc2)c(C)c1[N+](=O)[O-] (configuration not stated)	i	-0.3
O=C(O)C1C2CCC(O2)C1C(=O)Nc1cccc(Cl)c1 (configuration not stated)	i	0.49
Cc1c(C)n(C(=O)CSc2nc3ccccc3[nH]2)c2ccccc12	-11*	0.45*
O=S(=O)(Nc1ccc(-n2cnnn2)cc1)c1ccc(F)c(F)c1F	i	0.74
O=C1C=C(c2ccccc2)CC(c2ccc(F)cc2)C1 (configuration not stated)	i	0.83
O=C(O)C1C2CC2CN1C(=O)c1ccc(Cl)cc1Cl (configuration not stated)	i	0.88
CCOC(=O)C1=C(O)CSC1=Nc1ccc(C)cc1	i	-0.35
Cc1ccc(C)c(-n2nnnc2Sc2nc([N+](=O)[O-])nn2C)c1	i	-1.3
COc1cc(/C=N/NC(=O)c2cc(-c3cccc(Br)c3)nc3ccccc23)cc(OC)c1O	i	1.7
COc1ccc(C(=O)NNC(=O)CCC(=O)Nc2cc(C)on2)cc1	i	1.1
O=C(N[C@@H](Cc1ccccc1)c1nc2ccccc2[nH]1)c1cc([N+](=O)[O-])ccc1Cl	i	-0.08
COc1cccc(CN(C)C(=O)C(Cc2ccccc2)NC(=O)c2ccccc2)c1OC (configuration not stated)	i	1.5
CC1CN(C2CCN(C(=O)COc3ccc(Cl)cc3)CC2)CC(C)O1 (configuration not stated)	i	1.5
Cc1ccc(C(c2nnnn2CCc2ccccc2)N2CCC(C)CC2)cc1 (configuration not stated)	i	-0.05
CC(C)=CC(=O)N1CC[C@@H](N2CCN(c3ccccc3F)CC2)[C@H](O)C1	i	0.62
COc1ccc(C(C)=O)cc1COC(=O)Cc1n[nH]c(=O)c2ccccc12	i	0.29
CC(=O)c1cc(-c2ccccc2)n(CC(=O)N2CCCC2)c1C	i	-0.32
CC(=O)c1c(C)oc2ccc(N(C(C)=O)S(=O)(=O)c3ccc(Cl)c([N+](=O)[O-])c3)cc12	i	-3.4
Cc1cccc2[nH]c3c(=O)n(CCN4CCNCC4)cnc3c12	i	0.93
CCN1CCCC(NC(=O)c2cc([N+](=O)[O-])ccc2OC)C1 (configuration not stated)	i	0.35
Cn1c(=O)c2c(ncn2CC(=O)Nc2ccccc2Sc2ccccc2)n(C)c1=O	i	-1.8
Cc1ccc(-c2[nH]ncc2/C=N/n2c(COc3ccccc3C)nc3ccccc3c2=O)cc1	i	2.3
CSCCC(NC(=O)c1ccccc1Br)C(=O)NCC(C)(C)N1CCOCC1 (configuration not stated)	i	-0.81
CCNc1nc(NCC)n2c(SC(C(=O)Nc3cc(C)ccc3OC)c3ccccc3)nnc2n1 (configuration not stated)	i	-0.59
O=C(C[n+]1cc(Br)cc2ccccc21)c1ccc(Br)cc1	-6.1*	0.32*
CC(C)N(CC#CCC(O)(c1ccccc1)c1ccccc1)C(C)C	i	-0.36
N#C/C(=C\c1cc(O)c(O)c(O)c1)C(N)=O	i	-0.3
CCOc1cc(/C=C2\SC(=S)N(NS(=O)(=O)c3ccccc3)C2=O)ccc1O	i	-0.87
O=C(c1cccs1)N1CCN(CCCc2ccccc2)CC1	i	1.2
Cc1ccc(C(C)C)c(OCC(=O)NCC(c2cccs2)N2CCOCC2)c1 (configuration not stated)	-8.4*	0.11*

(more compounds)
SMILES	KCNQ2 inh	KCNQ2 inh baseline
O=C(Nc1ccccc1N1CCCC1)c1ccccc1Cl	-6.1*	0.67*
C[C@H](NC(=O)CCCn1nnc2ccccc2c1=O)C(=O)O	i	-0.11
CN(C)CCCN(C(=O)c1ccc(C(=O)c2ccccc2)cc1)c1nc2cc3c(cc2s1)OCO3	i	0.59
C(=N\Nc1nc(-c2ccccn2)nc2ccccc12)/c1ccccc1	i	-2
O=C(CNS(=O)(=O)c1ccccc1Br)OCC(=O)N1CCc2ccccc21	i	2.1
CCCCOC(=O)Nc1ccc(S(=O)(=O)Nc2ccc([N+](=O)[O-])cc2)cc1	i	1.6
COc1ccc(NC(=O)CSc2ccc3c4c(cccc24)C(=O)c2ccccc2-3)cc1	i	7.6
CC1CCN(CCCn2c(=S)[nH]c3ccc(N4CCOCC4)cc3c2=O)CC1	i	0.34
CCOc1ccc(-c2cc(C(=O)OC)nc3c2c(=O)n(C)c(=O)n3C)cc1	i	0.99
COc1cc(CCC(=O)NNC(=O)c2ccc(Cl)cc2)cc(OC)c1OC	i	0.13
Cc1cccc(C)c1Nc1c(-c2ccccn2)nc2ccccn12	i	-1.3

In the list so far, these have a thiophene ring, fused or not.
SMILES	KCNQ2 inh	KCNQ2 inh baseline
COc1ccc(NC(=O)CSc2nc3c(c(-c4cccs4)c2C#N)CN(C)CC3)cc1OC	i	0.04
COc1ccccc1/C=C/C=N/NC(=O)c1cccs1	i	-1.2
CCOc1ccc(NC(=O)c2sc3nc(C)nc(N4CCOCC4)c3c2C)cc1	i	-1.2
N#Cc1cc2c(N)c(C(=O)Nc3ccccc3)sc2nc1N	i	0.32
CSc1nnc(-c2sc3cc(Cl)ccc3c2Cl)n1C	i	0.05
O=C1NCC(c2ccccc2)C1C(=O)N/N=C/c1ccc(Cl)s1 (configuration not stated)	i	0.54
COc1ccc(NC(=O)CC2C(=O)N(C)C(=S)N2Cc2cccs2)cc1 (configuration not stated)	i	-1.3
O=C(c1cccs1)N1CCN(CCCc2ccccc2)CC1	i	1.2
Cc1ccc(C(C)C)c(OCC(=O)NCC(c2cccs2)N2CCOCC2)c1 (configuration not stated)	-8.4*	0.11*
